Screening results (PubChem BioAssay)
CapD inh – blocks the Bacillus anthracis CapD enzyme; purified CapD enzyme, fluorescence intensity read-out; stronger effect = lower value; some hits fall short of the stated cut; z-score (test concentration not listed); actives 0.23% (n = 140,000); AID 492967;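 active means z-score under -4 in either of two replicates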;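 further: stock transfer was 100 nL into about 40 µL; score is relative to mean and spread of the plate; one replicate is shown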
AID504770 – growth inhibitors of E. coli YBA685 in a screen for V. cholerae RctB (chromosome II replication) inhibitors. E. coli YBA685 rctB-dependent plasmid, OD600 growth, 3 h; stronger effect = lower value. z-score (no concentration beside the values). actives 0.27% (n = 130,000);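 active means z-score under -2 on both plates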;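 further: wells of about 30 µL received 100 nL stock; score is relative to mean and SD of the test wells; the first replicate is given; strong numbers were not always called active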
* marks the source's active call; other numbers are inactive results; i = inactive; · = no result given; & = joins results of further samples. This is a random part of the collection. Share with any hit: about 0.37%.

SMILES	CapD inh	AID504770
Cc1cc2c(cc3c(=O)n(CC(=O)N4CCc5ccccc5C4)ncn32)s1	-0.6	2.5
COc1ccc(CN(C)CN2C(=O)NC3(CCC(C(C)(C)C)CC3)C2=O)cc1 (centres undefined)	·	0.9
CC(C)C1Oc2cc3oc(=O)ccc3cc2/C1=N\O (centres undefined)	45	1.4
Cc1ccc(N(CC(O)Cn2c3ccccc3c3ccccc32)S(=O)(=O)c2ccccc2)cc1 (centres undefined)	0.81	0.1
CC1CCCC(C)N1C(=O)Cc1cccs1 (centres undefined)	0.11	-0.7
CCOC(=O)c1c(CC(C)C)csc1NC(=O)C(C)C	-0.02	-0.1
O=C1C(c2ccccc2)CCCC1c1ccccc1 (centres undefined)	-0.53	-1.5
COc1nc(NCCO)nc(Nc2ccccc2F)n1	·	0.2
O=C(Nc1c(-c2ccc(F)cc2)nc2ccccn12)c1ccccc1	-0.16	1.4
COc1cc(/C=C(\C#N)C(=O)C(C)(C)C)ccc1O	·	-0.35
Cc1ccc(Cl)cc1N1CCN(C(=O)C2CCCN2S(=O)(=O)c2cccc3nsnc23)CC1 (centres undefined)	-1.1	-1
CCOc1ccc(C(=O)NNC(=O)OCCN2CCN(Cc3cc(OC)c4c(c3)OCO4)CC2)cc1	0.32	·
CCC(=O)Nc1ccc(-n2cnnn2)cc1	·	-0.35
C=CCSc1nnc(NC(=O)CCNS(=O)(=O)c2ccccc2)s1	·	-0.4
CC(C)N(CCc1ccncc1)C(=S)NC1CCCCC1	-1.2	-0.95
O=C(CSc1nnc2n1CCCCC2)N1CCCC1c1ccc2c(c1)OCCCO2 (centres undefined)	·	-1.2
O=C(O)c1ccc(S(=O)(=O)N2CCCC3CCCCC32)cc1 (centres undefined)	-0.06	-0.95
O=C1C(=O)N(c2ccc(F)cc2)C(c2ccc(Br)cc2)/C1=C(/O)c1ccccc1 (centres undefined)	0.01	·
NC1=NC(=O)CC(C(=O)Nc2cccc3ccccc23)S1 (centres undefined)	-0.84	-1.1
C=C(C)c1ccccc1NC(=O)Cn1c(=O)sc2ccccc21	0.07	0.2
O=C(COC(=O)C1CCCCN1S(=O)(=O)c1ccccc1)Nc1ccc(OC(F)F)cc1 (centres undefined)	·	1.7
CCOC(=O)c1oc2ccccc2c1Cn1cc(S(=O)(=O)N2CCCC2)ccc1=O	·	-0.4
COc1ccccc1N1CCN(CCCNS(=O)(=O)c2ccc(-c3cc(C)no3)s2)CC1	0.31	0.05
COC(=O)COc1ccc(S(=O)(=O)Nc2cc(OC)ccc2OC)cc1	-0.18	-0.55
O=C(O)Cn1ccnc1	·	-0.4
Cc1ccc(-n2nc(C)cc2/N=C/N(C)C)cc1	·	-0.6
O=C(O)Cc1ccc(OC(F)(F)F)cc1	0.2	-0.55
COc1ccccc1NC(=O)NC1(C(=O)N2CCc3ccccc32)CCCCC1	·	0.4
O=[N+]([O-])c1ccc(SCCO)c2nonc12	-4*	·
COc1ccc(OCCSc2nc3ccccc3n2C)cc1	-0.03	-0.4
CNC(=S)N(C)CCc1ccc(OC)c(OC)c1	·	0.45
Cc1cccc(S(=O)(=O)N2CCN(c3ncccc3C(F)(F)F)CC2)c1	0.035	·
Cc1cc(C(=O)C(C)Sc2nnc(N)s2)c(C)n1-c1ccc(Cl)cc1 (centres undefined)	·	0.5
Cc1c(NC(=O)c2cccc([N+](=O)[O-])c2C)cccc1-c1nc2ccccc2[nH]1	-0.46	·
CNC(=O)CCN1C(=O)c2cccnc2Sc2ccccc21	-0.99	-0.45
Cc1ccc(CN(C)Cn2nc(-c3c[nH]c4ccccc34)n(-c3ccc(Cl)cc3)c2=S)o1	·	0.2
Cc1nnsc1-c1nc(CSc2ccccn2)no1	-0.86	-0.35
Cc1ccc(CSc2nnc(-c3csc(C)n3)n2C)cc1	0.99	0.8
CC(C)(C)OC(=O)N1CCCC(C(=O)O)C1 (centres undefined)	·	-0.35
CCOC(=O)Cn1c(CN2CC(C)OC(C)C2)nc2c1c(=O)n(C)c(=O)n2C (centres undefined)	-0.24	·
C(#Cc1ccc(-c2nc(-c3ccccc3)c(-c3ccccc3)[nH]2)cc1)c1ccccc1	79	·
Cc1ccc(S(=O)(=O)NCCOc2nc(N3CCOCC3)nc(N3CCOCC3)n2)cc1	0.35	0.15
CCOC(=O)c1cc2c(=O)[nH]c3ccccc3c2s1	5	0.5
COC(=O)C12CC3CC(C)(CC(C)(C3)C1)C2	0.49	-0.15
CC1CCc2sc(NC(=O)COc3ccc(Cl)cc3)c(C(N)=O)c2C1 (centres undefined)	i	2
Cc1noc(C)c1C(=O)N1CCC(C(=O)c2ccc(F)cc2F)CC1	0.43	1.8
CCCC(=O)Nc1ccc(OCC(O)CNC(C)C)c(C(C)=O)c1 (centres undefined)	-0.14&-1.1	0.6
Cc1ccc(-c2cc(C(=O)OCC(=O)Nc3nc(C)c(Cl)cc3Cl)c3ccccc3n2)o1	·	0.7
CC(=O)Nc1ccc(N2CC(C)(C)C2=O)cc1	-0.09	-1.5
O=C(O)CCC(=O)N1c2ccccc2NC2=C(C(=O)CC(c3ccccc3)C2)C1c1cccc(F)c1 (centres undefined)	0.26	·
Carrying on.
SMILES	CapD inh	AID504770
CC(C)C1O/C(=N\C(=O)Nc2ccc(Cl)c(Cl)c2)NC1=O (centres undefined)	·	-0.05
c1ccc(-c2nc3cc(NCc4cccnc4)ccc3o2)cc1	11	-0.8
O=C1CCCC2=C1C(c1ccccn1)C1=C(CCCC1=O)O2	0.47	-2.5*
CC1(C)CC(=O)C2=C(C1)OC(c1ccc(I)o1)C(C#N)=C2N (centres undefined)	-0.05	1.2
CC1(C)Cc2[nH]c(=O)c(C#N)cc2CS1	·	-0.65
O=C(NCc1ccccc1)c1ccc2cn[nH]c2c1	0.26	-2.1
Cc1n[nH]c(=O)c2c1nnn2Cc1ccccc1F	0.015	0.25
O=C(Nc1nc2ccc3ccccc3c2s1)c1cccs1	19	-0.65
O=C(O)/C(=C/c1ccc2c(c1)OCO2)NC(=O)c1ccccc1Br	0.24	-0.6
C=CCN1C(=O)C2(C(C#N)=C(N)Oc3n[nH]c(COC)c32)c2ccccc21 (centres undefined)	·	1.6
c1ccc2c(NCCCN3CCOCC3)c3c(nc2c1)CCC3	·	-0.4
O=C(c1ccccc1/S(=N/S(=O)(=O)c1ccccc1)N1CCOCC1)N1CCOCC1 (centres undefined)	·	-0.35
COc1ccccc1COn1c(=O)c(-c2ccco2)[n+]([O-])c2ccccc21	-0.72	1.5
CCC(C)Nc1nc(OC(C(F)(F)F)C(F)(F)F)nc(N(CC)CC)n1 (centres undefined)	·	-0.05
O=C(NCc1ccccc1)c1cccc(Cl)c1	-0.1	-1.1
Cc1ccc(Cn2c(C3CC3)nc3ccc(N)cc3c2=O)cc1	·	-0.3
Brc1cccc(N=c2oc3ccccc3cc2-c2nc(-c3ccccc3)cs2)c1	0.33	·
CCCCn1nnnc1COC(=O)c1ccccc1SCc1c(C)noc1C	·	-1.2
COCCNc1nnc(SCC(=O)c2ccc3c(c2)OCO3)s1	·	-0.6
CC(Sc1nc2ccccc2o1)C(N)=O (centres undefined)	·	0.1

Ordered by length of the SMILES (high to low): four of the compounds above
SMILES	CapD inh	AID504770
CCCCn1nnnc1COC(=O)c1ccccc1SCc1c(C)noc1C	·	-1.2
COCCNc1nnc(SCC(=O)c2ccc3c(c2)OCO3)s1	·	-0.6
c1ccc2c(NCCCN3CCOCC3)c3c(nc2c1)CCC3	·	-0.4
CC(Sc1nc2ccccc2o1)C(N)=O (centres undefined)	·	0.1

Additional compounds:
SMILES	CapD inh	AID504770
CCOC(=O)/C(C#N)=C/Nc1ccccc1	-3	0.25
O=C(Nc1ccc(N2CCOCC2)cc1)c1nc2ccccc2s1	-0.32	0.8
COc1ccc(N2C(=O)CSC2c2cc3c(cc2[N+](=O)[O-])OCO3)cc1OC (centres undefined)	-0.57	·
CCN1C(=O)/C(=C/C=C2/CCCN2C)N(c2ccccc2)C1=S	-0.34	2.3
COc1ccccc1NC(=O)COc1ncnc2ccccc12	·	-0.2
Cc1ccc(S(=O)(=O)c2c[nH]c3ccccc3c2=O)cc1	·	-0.45
CCOc1ccc(S(=O)(=O)N(Cc2ccco2)Cc2ccccc2C#N)cc1	·	0.45
Cc1cccc(CN2C(=O)c3ccccc3Sc3ccc(C(=O)NC(C)C)cc32)c1	-0.59	1.5
CC1CN(c2ccnc3cc(Cl)ccc23)CC(C)O1 (centres undefined)	·	1.6
COc1ccc(OC)c(C2Nc3ccc4ncccc4c3C3=C2C(=O)CCC3)c1 (centres undefined)	1.6	1.9
O=C1OC(c2ccccc2)C(Cl)=C1Cl (centres undefined)	-0.97	·
O=S(=O)(NC(c1ccccc1)c1nnc(-c2ccccc2)o1)c1ccc(F)cc1 (centres undefined)	0.14	-0.35
NNS(=O)(=O)c1ccc(OC(F)(F)F)cc1	0.17	-0.9
CCN(CC)c1ccc2cc(C(=O)NC(C)=O)c(=Nc3ccc(F)cc3F)oc2c1	-1.6	·
FC(F)(F)c1cccc(Oc2nc(-c3ccccc3)nnc2-c2ccccc2)c1	0.085	·
C=C1SC(Nc2ccccc2Cl)=NC1(C)C	-0.24	·
Cc1cc(C)nc(N2CCN(C(=O)CCC(=O)NN3CCOCC3)CC2)n1	0.67	·
CC1=NN(c2ccc(C)cc2)C(=O)C1C(c1ccccc1)C1C(=O)N(c2ccc(C)cc2)N=C1C (centres undefined)	5.8	·
COCC(C)n1c(COc2ccccc2F)nnc1SCc1nc2ccccc2s1 (centres undefined)	·	0.85
N#CCn1c(=O)n(C2CCCCC2)c(=O)c2cccnc21	0.15	-0.35
CCNC(=O)N1CCN(C(=O)NCC)CC1	-0.19	-0.95
CC(C)CN(C(=O)CSC1=Nc2ccccc2C2CC=NN12)C1CCS(=O)(=O)C1 (centres undefined)	·	-0.7
O=C(c1cn2c(n1)sc1ccccc12)N1CCCC1	0.01	·
CC1Cc2ccccc2N1C(=O)C1CCCN1S(=O)(=O)c1ccc(Cl)cc1 (centres undefined)	·	1.9
CCN(CC)C(=O)c1cc(-c2cccs2)nc2c1c(C)nn2-c1ccccc1C	·	0.95
COc1ccccc1OCCSc1nnnn1C1CCCCC1	2	0
CCSc1nnc(-c2cccc(S(=O)(=O)N(C)C)c2)n1-c1ccc(F)cc1	·	-0.15
CSc1nnc2c(n1)OC(c1ccccn1)Nc1ccccc1-2 (centres undefined)	-0.26	·
CCOc1ccc(N2C(=O)NC(=O)/C(=C\c3ccc(Br)o3)C2=O)cc1	-1.3	·
CCn1c(C)[n+](CC)c2ccc(Cl)cc21	0.36	-0.5
COc1ccc(OCC(=O)OCCN2C(=O)c3ccccc3C2=O)cc1	-0.35	1.6
COCC1=C(C(=O)OC)C(c2cccc(Br)c2)C(C#N)=C(N)O1 (centres undefined)	2.8	·
COc1ccc(O)c(C(=O)c2cnc3onc(-c4ccc(Cl)cc4)c3c2)c1	·	1.4
Cc1cc(C(=O)CSc2nnc(Cc3ccccc3)o2)c(C)n1CC1CCCO1 (centres undefined)	·	-0.65
Cc1cc(N2C(=O)CCC2=O)no1	0.37	-0.05
C[C@](N)(Cc1ccc(O)c(O)c1)C(=O)O	0.035&25	-0.7
COCC(=O)OCn1nnc2ccccc2c1=O	-0.59	-0.4
O=C1CCCC2=C1C(CCc1ccccc1)C1=C(CCCC1=O)O2	-0.57	·
COC(=O)c1cc(C(=O)OC)cc(N2C(=O)CSC2c2cccc(F)c2)c1 (centres undefined)	0.12	·
Cc1cc2cc(OCc3ccccc3)ccc2n1C	0.23	2.5
O=C(NCCc1ccccc1)C1COc2ccccc2O1 (centres undefined)	-0.2	·
CC(=O)Nc1ccc(NC(=O)COc2ccc(Cl)cc2Cl)cc1	-1.1	0.2
CCOC(=O)c1ccc(NC(=O)C2CC(=O)N(C)C(=Nc3ccc(C(=O)OC)cc3)S2)cc1 (centres undefined)	-0.21	·
COc1ccc2oc(C#N)cc2c1	17	0.35
Cc1oc(-n2cccc2)c(C#N)c1C(=O)NC1CCCCCC1	·	1.5
Cc1sc(-c2cccs2)nc1OC(=O)c1cccc(C(F)(F)F)c1	-0.14	·
CC12CCC(C(=O)Nc3ncc(Cl)cc3Cl)(CC1=O)C2(C)C (centres undefined)	-1.9*	0.9
COc1ccc(C2CC(=O)C3=C(C2)NC(C)=C(C(=O)OC2CCCC2)C3c2ccccc2OC)cc1OC (centres undefined)	25	·
O=C(c1cnc2c(c1)c(-c1ccccc1)nn2CCO)c1ccccc1O	·	-0.5

Whole records from above. Order of screens: CapD inh, AID504770
Results for `COc1ccc(C2CC(=O)C3=C(C2)NC(C)=C(C(=O)OC2CCCC2)C3c2ccccc2OC)cc1OC` (centres undefined) = 25, ·
Results for `CCOC(=O)c1ccc(NC(=O)C2CC(=O)N(C)C(=Nc3ccc(C(=O)OC)cc3)S2)cc1` (centres undefined) = -0.21, ·
Results for `O=C(NCCc1ccccc1)C1COc2ccccc2O1` (centres undefined) = -0.2, ·
Results for `COc1ccc2oc(C#N)cc2c1` = 17, 0.35
Results for `Cc1sc(-c2cccs2)nc1OC(=O)c1cccc(C(F)(F)F)c1` = -0.14, ·
